NPYLR7 ag = activates Aedes aegypti NPYLR7 receptor | HEK293T NPYLR7/Galpha15, GCaMP6s calcium fluorescence | 270,000 compounds, 0.15% hits | AID 1259423 | activation, % at 10 µM; in the data active = activation above about 40%;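 note: 0% = vehicle and 100% = reference agonist at the receptor; some compounds past the cut are filed as inactive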
NPYLR7 ag max-min = also measured in NPYLR7 ag; calls as there; activation, %; measured here: Max-Min RFU normalised activation; some inactives read as strong as hits;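 span of the calcium signal over five minutes; 0% = vehicle and 100% = native peptide agonist; compound fluorescence can raise it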
Numbers without * were called inactive; & = joins results of further samples. Only part of the results is shown. The share of hits here may be higher or lower than overall.

SMILES	NPYLR7 ag	NPYLR7 ag max-min
CN(Cc1nc(C2CC2)no1)c1nccc(CCC(F)(F)F)n1	3	0
CCOC(=O)CC1=NN(c2ccccc2)C(=O)/C1=C\c1ccc(N(C)C)cc1	3	10
CCOc1ccccc1CN(CC)C(=O)c1cnn2cc(C)cnc12	-19	-20
CC(C)c1cc(C(=O)NCc2ccco2)nn1-c1nc2ccccc2s1	13	-1
O=S1(=O)CCC(=NNc2nc3ccccc3s2)c2cc(F)ccc21	5	6
CCn1c(C(=O)N2CCN(C(=O)COc3ccccc3)C(C)C2)cc2ccsc21 (stereo not drawn)	1	13
CCc1ccc(S(=O)(=O)Nc2cccc(-c3nc4cccnc4s3)c2C)s1	-2	-5
CCc1cccc2c(C(CC(=O)N(CCC#N)Cc3cccnc3)c3cccc4c3OCO4)c[nH]c12 (stereo not drawn)	-2	0
CCOC(=O)N1CCN(C2CCCN(C3CCN(c4ccc5c(c4)CCC5)CC3)C2)CC1 (stereo not drawn)	16	9
COc1ccc(OC)c(NC(=O)N2CCC(c3ccc(F)cc3)CC2)c1	-4	-13
Cc1cc(C)cc(C(=O)Nc2c(C)nc3c(C)cccn3c2=O)c1	3	0
C=CCN1N=C(C)C(C)n2c1nc1c2c(=O)n(CCCC)c(=O)n1C (stereo not drawn)	-1	3
CC1CCN(Cc2nc3c(c(=O)n(C)c(=O)n3C)n2CCCc2ccccc2)CC1	7	5
CCCc1nc(C)nc(C(=O)N2CCNC(C)C2)c1C(=O)OCC (stereo not drawn)	0	-1
COc1cc2c(cc1CNCc1cccnc1-n1cnc3ccccc31)CCC2	21	21

3 of the compounds above, as labelled records.
O=S1(=O)CCC(=NNc2nc3ccccc3s2)c2cc(F)ccc21
  NPYLR7 ag = 5	NPYLR7 ag max-min = 6

CCn1c(C(=O)N2CCN(C(=O)COc3ccccc3)C(C)C2)cc2ccsc21 (stereo not drawn)
  NPYLR7 ag = 1	NPYLR7 ag max-min = 13

CCc1ccc(S(=O)(=O)Nc2cccc(-c3nc4cccnc4s3)c2C)s1
  NPYLR7 ag = -2	NPYLR7 ag max-min = -5

(listing goes on)
SMILES	NPYLR7 ag	NPYLR7 ag max-min
CCS(=O)(=O)c1ccc2oc(/C=C/c3ccsc3)nc2c1	6	3
Cc1nc(C)c(CN2CC[C@@H](c3sccc3C)[C@H](O)C2)s1	2	2
CN(C)C(=S)Nc1ccc2ccccc2c1	37	32
COc1cccc(C(=O)Nc2nnc(N=Cc3ccc([N+](=O)[O-])s3)s2)c1	-2	-10
COc1cc(OC)nc(C(NC(=O)C2CCN(Cc3ccc(Oc4ccccc4)cc3)CC2)c2ccccc2C)n1 (stereo not drawn)	-7	-4
O=C(Cn1cnc2sc3c(c2c1=O)CCCC3)N1CCCCC1	0	0
CC(=O)NCCC1CCCCN1C(=O)Nc1ccc(Oc2ccccc2)cc1 (stereo not drawn)	13	9
CCCCc1nc(CS(=O)(=O)Cc2cc(Cl)cc3c2OCOC3)cs1	-3	-4
Cc1cccc(Nc2ncnc3c2CN(C(=O)c2sccc2-n2c(C)ccc2C)CC3)c1	11	14
COc1cc(-c2nc(C=Nc3cc(C)ccn3)c(O)o2)cc(OC)c1OC	8	4
CCc1nnc(-c2cc3ccccc3n2CC(=O)Nc2ccc(OC)c(OC)c2)o1	-1	0
CN1CCN(c2nc(Nc3ccc(SC(F)F)cc3)c3cnn(-c4ccccc4)c3n2)CC1	1	0
CC(=O)NCCC1CN(Cc2nc3c(s2)CCCC3)CCO1 (stereo not drawn)	3	2
Cn1nc(C(=O)NCc2nnc(-c3ccccc3)o2)c2c1CCCC2	7	7
COC(=O)Cc1cnc(NC(=O)CN2CCc3c([nH]c4ccccc34)C2)s1	-3	-6
Cc1ccc(NC(=O)N(CC(C)(C)O)C(C)C)cc1Cl	6	3
CC(C)c1cc(-c2nnc3sc(Cc4ccccc4)nn23)n[nH]1	-10	-19
Cc1ncc(CSc2nc(-c3ccccc3)c(C#N)c(=O)[nH]2)c(N)n1	1	-2
O=C(C1CCC1)N(Cc1ccc(F)cc1)Cc1ccccc1OS(=O)(=O)c1ccc(F)cc1	16	14
CC(=O)N1CCN(C(=O)CN2CN(c3ccccc3)C3(CCN(C(=O)C4CC4)CC3)C2=O)CC1	9	17
COc1cc2ccccc2cc1C(=O)N(CCN(C)C)c1nc2c(C)cccc2s1	-3	-6
COC(=O)c1ccc(NCc2ccc(NS(C)(=O)=O)cc2)c(C)c1	21	14
CC(C)N(CC1CC2C=CC1C2)C(=O)CCCN1C(=O)CN(C)C1=O (stereo not drawn)	-1	-7
NC(=O)CCSc1nnc(-c2cc3ccccc3[nH]2)n1-c1ccccc1	20	14
CCCCN(C(=O)C1CCCC1)c1c(N)n(CCC)c(=O)[nH]c1=O	10	8
COc1ccccc1CN1CCCC(CN(CCN(C)C)C(=O)c2cscn2)C1 (stereo not drawn)	9	5
Cc1nnc(N2C(=O)C(=O)C(=C(O)c3ccc(OC(C)C)cc3)C2c2ccc([N+](=O)[O-])cc2)s1 (stereo not drawn)	-3	-1
CCCCN(CC(=O)N(CCc1c[nH]c2ccccc12)Cc1ccc(F)cc1)C(=O)c1ccc(Br)cc1	20	18
COc1ccc(CN(C)c2c(C)nc3c(OCC(=O)c4ccc(Cl)cc4Cl)cccn23)cc1	15	3
COc1ccc(C(=O)Nc2ccccc2)c(F)c1	0	-1
COc1ccc(-c2nnc(NC(=O)c3ccco3)s2)cc1OC	-9	-13
Cc1cc(NC(=O)C(C)(C)C)sc1C(=O)N1CC(C)CC(C)C1 (stereo not drawn)	8	3
N#Cc1ccc(N2CCN3C(=O)C(=O)NCC3C2)nc1 (stereo not drawn)	36	28
Cc1nn(C)c(Cl)c1C(=O)Nc1ccc(F)c(S(=O)(=O)N2CCOCC2)c1	1	0
O=C(c1ccc(=O)[nH]n1)N1CCC(c2cc(-c3ccccc3Cl)n[nH]2)CC1	1	3
CCOC(=O)CCc1c(C)nc2ncnn2c1N1CCN(c2ccc(Cl)cc2F)CC1	12	4
C#CCN(Cc1ccc(F)cc1)C(=O)C1=CN2CCS(=O)(=O)N=C2C=C1	10	7
CC(=O)NC(=O)c1cc2cc([N+](=O)[O-])ccc2oc1=Nc1ccc(C)cc1	-7	-13
Cc1ccccc1C1(O)CCN(C(=O)CCC2CCCC2)C1 (stereo not drawn)	-3	-4
S=c1n(CN2CCOCC2)nc(-c2ccncc2)n1-c1ccccc1	2	7
CC(CCO)CNC(=O)CC1CCN(C(=O)OC(C)(C)C)CC1 (stereo not drawn)	4	5
CCOC(=O)C1(Cc2cccc(C(F)(F)F)c2)CCN(Cc2ccc(C#CCCO)cc2)CC1	-6	-14
COc1ccccc1N1CCN(C2CCCN(CCCC3CCCC3)C2)CC1 (stereo not drawn)	8	2
Cc1ccc(OCCN2CCC2(C)C(=O)Nc2cccc(Br)c2C)cc1 (stereo not drawn)	8	5
CCc1ncc2c(n1)CN(C(=O)c1c(-c3ccccc3)ccnc1C)C2	23	6
CCOC(=O)c1sc(N)c(C#N)c1COC(=O)c1c(CC)noc1C	3	13
CN(Cc1ccc(C(F)(F)F)cc1)c1ncc(S(N)(=O)=O)s1	8	4
CN(CC(=O)Nc1ccc(F)cc1)C(=O)Cc1coc2cc3c(cc12)CCC3	0	1
CN(CCCNC(=O)C1CC(=O)N(N(C)c2ccccc2)C1)c1ccccc1 (stereo not drawn)	-7	-10
CSc1ccc(C(=O)N2CC(=O)N(CC(O)COC(C)(C)C)CC(C)(C)C2)cc1 (stereo not drawn)	29	31
C=CCN(Cc1ccc2c(c1)OCCO2)Cc1ccccn1	20	17
Cc1ccc(-n2c(C)cn3c4c(=O)n(C)c(=O)n(C)c4nc23)c(C)c1	-2	0
Cn1c(=O)n(Cc2ccc(Cl)c(Cl)c2)c(=O)c2c1nc1n2CCCN1Cc1ccco1	7	7
CCc1nc2ccc(C(=O)Nc3ccc(OC)c(OC)c3)cn2c1N(C)CCCc1ccccc1	20	16
COc1ccc(CCN(Cc2cccs2)C(=O)CN(C(=O)Nc2ccc(Cl)cc2Cl)C2CC2)cc1OC	-1	-9
Cc1cc(CN2CCC(CNC(=O)c3ccc(F)cc3F)C2)on1 (stereo not drawn)	2	1
COCCNC(=O)c1ccc(OC2CCN(Cc3ccc4nonc4c3)CC2)c(Cl)c1	4	-1
Cc1c(C(=O)NCc2nnc(SCC(=O)Nc3nc4ccccc4s3)n2-c2ccccc2)cccc1[N+](=O)[O-]	-6	2
CCOc1cccc(-c2nc(C(N)=O)c3[nH]c(=O)n(-c4ccc(C)cc4)c3n2)c1O	2	10
Cc1ccoc1C(=O)NCCN1CCC(c2ccccc2)C1 (stereo not drawn)	0	-2
(listing goes on)
SMILES	NPYLR7 ag	NPYLR7 ag max-min
CC1(C(=O)Nc2ccccc2F)CCN1C(=O)C1(c2ccccc2)CC1 (stereo not drawn)	3	4
COC(=O)C1=C(C)N(C)C(C)=C(C(=O)OC)C1c1cccc(OC)c1	-3	-2
Cc1cc2nc(CN3CCOC(C(F)(F)F)C3)cc(=O)n2[nH]1 (stereo not drawn)	6	-4
COc1ccc(Cl)c2sc(NCCN(C)C)nc12	2	-1
O=C(Nc1cc(Oc2cccnc2)cc([N+](=O)[O-])c1)c1cc2nc(-c3ccc(F)cc3)cc(C(F)(F)F)n2n1	0	-4
COc1ccccc1NC(=O)c1cc2c(ccc3ccccc32)oc1=O	-6	-12
Cc1ccccc1OCc1nc(CN(C(=O)c2ccccc2C)C(C)C)cs1	16	10
CC(Oc1cccc(F)c1)C(=O)NCCOc1ccc2nnc(-c3ccc(F)cc3)n2n1 (stereo not drawn)	-2	-3
COc1ccc(S(=O)(=O)N(CC(=O)Nc2ccccc2C)c2ccc(C)cc2)cc1OC	-1	-5
CC1CCCCC1=NNC(=S)NC1CCCCC1 (stereo not drawn)	-7	-8
CC(=O)Nc1ccc(-c2ccnc3c2CC(C(=O)NCC2CC2)O3)cc1 (stereo not drawn)	8	17
CC(C)CN1N=C(c2ccc(F)cc2)Cn2c1nc1c2c(=O)n(C)c(=O)n1C	-1	5
CCOc1ncccc1-c1cnn(CC(=O)NC)c1	-6	-7
O=C1OC(c2cccc(F)c2)=NC1=Cc1ccc(Cl)s1	1	8
CC(=O)c1c(C)nn(CC(=O)N2CCNCC2C(=O)N2CCCC2)c1C (stereo not drawn)	1	-3
Cc1ccc(C(=O)Nc2cc(C(=O)N(C)C)ccc2F)cc1F	8	6
CN=c1scc(-c2[nH]c(C)c(C(=O)OC)c2C)n1C	9	6
O=C(CSc1ccc(-c2cccc([N+](=O)[O-])c2)nn1)N1CCCCC1	2	2
COc1ccc(-n2c(SCC(=O)N3CCN(C(=O)c4ccc(OC)cc4OC)C(C)C3)nnc2-c2ccco2)cc1 (stereo not drawn)	2	12
COc1ccc(NC(=S)N2CC(=O)N3CCc4c(F)cccc4C3C2)c(C)c1 (stereo not drawn)	21	11
O=C1CCC(C(=O)NC2CCCOc3c2ccc2ccccc32)CN1 (stereo not drawn)	9	7
C=CCc1c(C)nc2c(-c3ccccc3)cnn2c1NCc1ccccc1	-2	-3
O=C(Nc1ccccc1)c1cc(C2CCCN(C(=O)C/C=C/c3ccccc3)C2)on1 (stereo not drawn)	5	1
COc1ccc(CN2CCN(Cc3ccc(C)o3)C(CCO)C2)c(F)c1 (stereo not drawn)	-5	-8
Cc1noc(-c2cccnc2)c1C(=O)NCc1ccncc1	17	20
O=C(COc1ccccc1)NC(c1ccccc1)C1CC1 (stereo not drawn)	-1	3
C=CCn1c(=O)c2c(nc3n(-c4ccccc4O)c(C)c(C)n23)n(C)c1=O	5	0
COc1cccc(NCc2nnc(SC3CCOC3=O)n2C2CCCCC2)c1 (stereo not drawn)	8	4
CC(C)CCn1c(O)c(N=Nc2ccc(C(F)(F)F)cn2)c2ccccc21	3	1
COc1ccc(F)c(CN2CCCC3(CCN(C(=O)CCn4ccc(=O)[nH]c4=O)C3)C2)c1 (stereo not drawn)	3	0

Next section, starting with the last 5 of the part before.
SMILES	NPYLR7 ag	NPYLR7 ag max-min
O=C(COc1ccccc1)NC(c1ccccc1)C1CC1 (stereo not drawn)	-1	3
C=CCn1c(=O)c2c(nc3n(-c4ccccc4O)c(C)c(C)n23)n(C)c1=O	5	0
COc1cccc(NCc2nnc(SC3CCOC3=O)n2C2CCCCC2)c1 (stereo not drawn)	8	4
CC(C)CCn1c(O)c(N=Nc2ccc(C(F)(F)F)cn2)c2ccccc21	3	1
COc1ccc(F)c(CN2CCCC3(CCN(C(=O)CCn4ccc(=O)[nH]c4=O)C3)C2)c1 (stereo not drawn)	3	0
COC(=O)c1ccc(N2C(=O)CSC2c2ccc(Br)cc2)cc1 (stereo not drawn)	-2	-3
O=C(C1COc2ccccc2O1)N1CCC(c2nc3cc(Cl)ccc3s2)CC1 (stereo not drawn)	-3	-3
Cc1cc(S(=O)(=O)NCc2ccccc2Cl)ccc1F	2	-1
COc1ccc(OC)c(NC(=O)c2ccc(-n3nc(C)cc3C)cc2)c1	6	4
CCOC(=O)N1CCN(C2CCCN(Cc3cccc(-c4ccco4)c3)C2)CC1 (stereo not drawn)	21	11
Cn1cnc2c1c(=O)[nH]c(=O)n2C	-10&4&1&-1	-13&5&5&-4
COCc1ncc(CN2CCC(Cc3nnc(SC)n3C)CC2)cn1	14	-3
COc1ccc(-n2nc(-c3ccccc3)c3c2N(CC(=O)Nc2ccccc2)C(=O)CSC3c2ccc(OC)c(OC)c2)cc1 (stereo not drawn)	-1	11
CN(Cc1ccccc1)Cc1nc2scc(-c3ccccc3Cl)c2c(=O)[nH]1	1	3
CCc1nnc(CN(C(=O)c2[nH]c3c(C)cc(C)cc3c2C)C(C)C)o1	0	-9
C=CCN(Cc1nccn1Cc1ccc(F)cc1)C(=O)c1ccc(F)cc1	9	11

High-throughput results deposited in PubChem by Fisher Drug Discovery Resource Center.
